Calb FLC: C. albicans growth inhibition with fluconazole, primary screen, CaCi-2 strain, Alamar Blue fluorescence; growth inhibition, % (no concentration beside the values); C. albicans CaCi-2 (fluconazole-resistant clinical isolate) + fluconazole, 48 h; actives 0.57% (n = 300,000);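 active = most replicates above 75%; inconclusive = exactly half above 75%; inactive = most below 75%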;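 also: all wells also contain fluconazole at 8 µg/ml as a sub-toxic cotreatment; 0% = median of DMSO wells and 100% = median of geldanamycin control wells; wells of about 8 µL received 7.5 nL stock; the first replicate is given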
UCH37 DUB inh: inhibitors of human UCH37 deubiquitinase, primary screen, biochemical, Ub-AMC cleavage, fluorescence | Ubiquitin carboxyl-terminal hydrolase isozyme L5 (Homo sapiens), Q9Y5K5 | purified proteasome/UCH37 | inhibition, % (test concentration not listed) | actives 0.33% (n = 330,000) | AID 588478, 2011;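 active = mean of two replicates above 20%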;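 also: 0% = compound-free wells with enzyme and 100% = wells lacking proteasome; stock transfer was 100 nL into about 20 µL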
Target sequence (Q9Y5K5 whole entry, looked up): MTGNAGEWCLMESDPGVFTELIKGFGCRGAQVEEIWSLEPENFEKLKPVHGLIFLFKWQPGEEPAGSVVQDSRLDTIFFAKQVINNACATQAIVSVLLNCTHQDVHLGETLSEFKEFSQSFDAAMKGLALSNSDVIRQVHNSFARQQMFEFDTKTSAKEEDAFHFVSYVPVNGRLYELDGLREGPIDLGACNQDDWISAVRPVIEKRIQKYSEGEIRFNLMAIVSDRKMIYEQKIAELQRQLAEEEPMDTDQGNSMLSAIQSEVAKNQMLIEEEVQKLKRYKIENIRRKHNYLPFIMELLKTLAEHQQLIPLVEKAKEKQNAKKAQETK
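Material: Human UCH37 enzyme supplied as purified proteasome complex | Schedule: 30 min compound-proteasome preincubation then 25 min substrate reaction, room temperature | Detection: AMC fluorescence from Ub-AMC cleavage, excitation 355 nm, emission 460 nm | Benchmarks: Wells without proteasome as full block, compound-free enzyme plus substrate as uninhibited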
T cruzi repl: inhibitors of intracellular T. cruzi growth, primary screen, luminescence, NIH3T3 host cells; actives 1.4% (n = 300,000); T. cruzi beta-gal in NIH3T3, 90 h; inhibition, % (concentration not given with the values); AID 1885, 2009;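 active = mean inhibition across valid replicates above about 55%, limit read from the data; inconclusive = mean below that limit but half or more replicates reach it; inactive = mean below it, under half of replicates reach it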;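 also: signal also drops with host cell toxicity which is not excluded here; 0% = plate median of DMSO wells and 100% = zero luminescence signal; higher percent means less beta-gal luminescence so fewer parasites; stock transfer was 50 nL into about 50 µL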
LANA-H2A inh: blockers of LANA interaction with H2A/H2B – biochemical, FP readout, HTS, primary screen. inhibition, % (no concentration beside the values). actives 0.6% (n = 320,000). cell-free LANA-H2A/H2B peptide, fluorescence polarization. AID 2629, 2010. Protein LANA1 (Human herpesvirus 8 type P (isolate GK18)), Q9QR71; in the data active = inhibition mostly above about 10%, no sharp cut-off; inactive = mostly below about 6.7%;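 also: stock transfer was 7.5 nL into about 10 µL; 0% = median of vehicle wells and 100% = median of positive control wells; one replicate is shown; the record names a cut of 25% in any replicate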
A1 inh: caspase 3/7 activation in MEF A1-2A-BIM cells, primary screen, A1 inhibitor project, cell-based, luminescence, HTS; caspase activation, % (no concentration beside the values); actives 0.066% (n = 330,000); Caspase-Glo 3/7 luminescence, 3 h; percent of clofoctol response, vehicle zero; AID 2462, 2010;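 active = over half of replicate activation scores above 10%, or exactly half above 10 with the replicate mean above 10; inconclusive = replicate mean below 10 yet half the replicates above 10; inactive = over half of replicates below 10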;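 also: wells of about 30 µL received 50 nL stock; many hits fall short of the cut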
Beta2AR agonist: beta2AR agonists driving receptor internalization, primary screen, cell-based, FAP fluorogen, flow cytometry | AID 504454, 2011 | response, % (concentration not given with the values) | Beta-2 adrenergic receptor (Homo sapiens), P07550 | actives 0.43% (n = 340,000) | Am2.2-beta2AR cells; reference of the scale not given here;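 active = response above a set limit, near 3 SD of response in nonfluorescent compounds, cut at about 42% in these data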;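 also: stock transfer was 100 nL into about 11 µL; a reference agonist was the positive control; negative values mostly stem from fluorescent compounds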
Target sequence (P07550 whole entry, looked up): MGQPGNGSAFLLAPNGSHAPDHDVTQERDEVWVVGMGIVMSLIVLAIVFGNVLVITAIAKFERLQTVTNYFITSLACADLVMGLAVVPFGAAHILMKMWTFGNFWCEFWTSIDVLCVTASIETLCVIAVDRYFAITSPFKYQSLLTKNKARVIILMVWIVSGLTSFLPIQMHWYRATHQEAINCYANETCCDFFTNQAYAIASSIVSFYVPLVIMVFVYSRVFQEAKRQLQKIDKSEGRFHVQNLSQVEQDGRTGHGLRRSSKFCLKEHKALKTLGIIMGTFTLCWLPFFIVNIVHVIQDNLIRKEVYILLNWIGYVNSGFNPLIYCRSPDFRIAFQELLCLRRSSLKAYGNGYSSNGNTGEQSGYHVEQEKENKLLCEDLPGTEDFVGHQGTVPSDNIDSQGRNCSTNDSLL
RanGTP-Imp inh: inhibitors of RanGTP-importin-beta interaction, primary screen, biochemical, FRET, CFP-Ran, YFP-importin-beta, homogeneous. actives 1.1% (n = 300,000). Ran GTPase (GTP-bound) - importin-beta complex. cell-free CFP-Ran/YFP-importin-beta FRET ratio. inhibition, % (no concentration beside the values);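 active = most replicates above 15%; inconclusive = exactly half above 15%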;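 also: 0% = DMSO wells and 100% = Ran loaded with GDP instead of GTP; wells of about 40 µL received 100 nL stock; the first replicate is given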
Beta apoptosis: inhibitors of cytokine-induced beta cell apoptosis, primary screen, luminescence. protection from apoptosis, % (test concentration not listed). INS-1E cytokine-induced death, ATP luminescence, 48 h; percent of positive-control rescue, neutral wells zero. actives 0.8% (n = 300,000). AID 435005, 2010;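 active = all replicates at 75% or more, or half of them and the mean; inconclusive = half reach 75% but not the mean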;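 also: 0% = cytokine-treated negative control wells and 100% = positive control rescue; higher means more ATP so stronger rescue from cytokine killing; wells of about 40 µL received 100 nL stock; the first replicate is given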
The depositor's hits bear a star; ? = inconclusive; . = not tested or not shown.

SMILES | Calb FLC | UCH37 DUB inh | T cruzi repl | LANA-H2A inh | A1 inh | Beta2AR agonist | RanGTP-Imp inh | Beta apoptosis
Cc1ccc(-n2nnnc2C(Cl)c2nnnn2-c2ccc(C)cc2)cc1 | 96* | 6.6 | 55* | . | . | 9 | 0.4 | .
O=C(COC(=O)COc1ccccc1)Nc1ncc(Cl)cc1Cl | . | 1.6 | . | -1.6 | -0.3 | 4 | . | -4
CCCC1=[N+](CC(=O)c2ccccc2)CCn2c(C)ccc21 | ? | -15 | 25 | 4.3 | 0.0 | 2 | -2.0 | 7
CN1CCN(C(=S)Nc2cc([N+](=O)[O-])ccc2Cl)CC1 | . | 7.3 | . | 9.7 | -1.0 | -6 | . | 9
CN(CC(=O)Nc1ccc(F)c(F)c1F)C(=O)Cc1ccc2c(c1)OCCO2 | -5 | 0.1 | -1 | -0.5 | 1.4 | -3 | 5.3 | -2
CCCCOC(=O)C1=C(C)NC(=O)NC1c1ccc(OC)cc1 (configuration not stated) | 2 | 2.3 | -4 | 5.6 | 0.4 | -9 | 3.5 | -4
O=C(Cn1c(NCCO)nc2ccccc21)c1ccc(F)cc1 | -23 | 1.2 | -9 | 4.6 | 0.7 | 2 | -0.7 | .
CN(Cc1ccco1)C(=O)Cn1c(=O)oc2cc(S(=O)(=O)NCc3ccccc3)ccc21 | 3 | 3.0 | -11 | 1.6 | 0.6 | 4 | 9.2 | -4
CCOC(=O)c1ccc(NC(=O)Cn2nnc(-c3ccccc3F)n2)cc1 | -17 | 3.5 | -10 | -1.6 | 0.0 | -10 | -3.1 | -6
O=C(COC(=O)c1ccccc1OC(F)F)Nc1ccc2[nH]c(=O)[nH]c2c1 | 10 | 4.2 | -15 | -2.0 | -0.1 | -6 | -0.5 | 9
Cn1c(=O)c2[nH]c(N3CCN(c4cccc(O)c4)CC3)nc2n(C)c1=O | 5 | 0.9 | -31 | -1.4 | 0.6 | 0 | 0.4 | -2
C[C@@H]1CN(C(=O)c2cc(COc3cccc(C(F)(F)F)c3)on2)C[C@H](C)O1 | 1 | 1.9 | -7 | -5.7 | -0.5 | 11 | 2.2 | -7
CCS(=O)(=O)c1nc(S(=O)(=O)c2ccc(Cl)cc2)c(N2CCN(CCO)CC2)s1 | -1 | 2.5 | 6 | -2.1 | 1.2 | -7 | 3.2 | -1
CCOC(=O)c1ccc(Oc2cn[nH]c2-c2ccc(OCC(=O)NN)cc2O)cc1 | -3 | 2.9 | -11 | -8.5 | 0.6 | 6 | -2.1 | -4
Cc1cc(C(=O)N2CCN(c3ncccn3)CC2)sc1-c1ccccc1 | 0 | 0.6 | 28 | -0.4 | 0.3 | -6 | -0.1 | -5
CCOC(=O)NC(=O)/C(N=Nc1cccc(C(F)(F)F)c1)=C(\C)O | 6 | 0.3 | 36 | -3.2 | -0.3 | -2 | -2.2 | .
Cc1ccccc1NC(=O)Nc1ccc2c(c1)CCC2 | -7 | 2.8 | 9 | 5.0 | -5.8 | 2 | 0.5 | -4
Nc1ccc(N=Nc2ccccc2)c(N)n1 | . | 2.8 | 44 | -13 | . | 3 | -6.1 | .
O=C(CSc1ccc(-c2cccc([N+](=O)[O-])c2)nn1)NCc1ccccc1 | 4 | -0.4 | 23 | -1.5 | 1.7 | -4 | 8.9 | -3
COc1ccc(-c2noc(C3CCCN(C(=O)Nc4ccccc4)C3)n2)cc1 (configuration not stated) | 6 | 1.5 | 10 | 1.7 | 0.3 | 4 | 6.4 | -4
COC(=O)c1c(C)[nH]c(C(=O)OCc2csc(CC(=O)Nc3ccccc3C)n2)c1C | . | 3.3 | . | 1.9 | 0.3 | 11 | . | 6
Cc1c(Cl)cccc1NC(=O)CSCC(N)=O | 11 | 0.3 | -16 | -6.4 | 0.4 | -3 | 5.4 | 3
COc1cc2c(cc1NC(=O)CSc1nnc(Cc3cccs3)n1Cc1ccco1)oc1ccccc12 | -3 | 5.8 | 51 | 5.9 | 2.7 | 6 | -1.3 | -2
CC(=O)N1CCN(C(=O)CCc2nc3sc4c(c3c(=O)[nH]2)CCCC4)CC1 | -5 | -0.5 | -11 | -1.9 | -0.7 | -12 | -2.7 | -4
CCn1cc(C(=O)N[C@@H](C)C(=O)OC)c(=O)c2cc3c(cc21)OCO3 | -1 | -17 | -17 | 1.6 | ? | 7 | 5.2 | -4
O=C(/C=C/c1ccco1)Nc1cccnc1Cl | 0 | 0.0 | 6 | 3.6 | -5.7 | -9 | 3.0 | .
Cc1ccc(OCCC(=O)OCC(=O)Nc2cc(C)cc(C)c2)cc1 | -1 | 6.3 | -14 | -0.2 | 1.0 | -10 | -1.6 | -9
CC(=O)c1cccc(NC(=O)c2cc(Cl)sc2Cl)c1 | 15 | 3.7 | -3 | 11 | 0.7 | 7 | 0.0 | 1
CC(C)Cn1c(SCC(=O)NCCCN2CCCC2=O)nc2ccccc21 | -3 | 0.6 | -8 | -2.9 | 0.5 | 4 | 5.4 | .
O=C1N(CC(=O)N2CCc3ccccc32)CCN1Cc1ccc(Cl)cc1 | 1 | -2.0 | -9 | 2.1 | 0.6 | -4 | 0.5 | 0
Cc1nn(Cc2ccc(C(=O)N3c4ccc(F)cc4CCC3C)o2)c(C)c1Br (configuration not stated) | 4 | 0.2 | 15 | -5.4 | -0.1 | 2 | 0.7 | 6
O=C1N=c2ccccc2=C1c1c(O)n(-c2cccc(F)c2)[nH]c1=O | -4 | 1.4 | -9 | . | -0.1 | 7 | -4.2 | -5
COc1ccc(/C=N/NC(=O)CNC(=O)c2cccs2)cc1 | -11 | . | -25 | -4.7 | -0.3 | 0 | 0.1 | 0
CSC1=NCCN1C(=O)c1ccc2ccccc2c1 | -15 | 1.4 | -16 | -3.7 | 0.5 | -9 | -2.1 | -9
C/C(=N\OC(=O)c1c(-c2c(F)cccc2Cl)noc1C)c1nccs1 | 34 | . | -7 | 4.7 | 0.7 | -7 | 1.3 | 3
CC(=O)N(c1cccc(C(F)(F)F)c1)c1nc(/C=C/C(=O)O)cs1 | 5 | 0.7 | 3 | -7.4 | -0.7 | 2 | 2.3 | -1
CN(c1ccccc1)S(=O)(=O)c1cccc(C(=O)Nc2ccc3c(c2)CCC3)c1 | -2 | -0.8 | 11 | 5.4 | 0.7 | 2 | -1.6 | 0
COc1ccc(N(C)C(=O)c2ccc3snnc3c2)cc1 | 3 | 4.1 | 0 | 3.3 | 0.0 | 14 | -2.6 | -2
CNC(=O)CCSSCCC(=O)NC | 10 | 1.4 | -1 | -3.1 | 0.9 | 2 | 0.4 | .
Cc1cc(N2C(=O)c3ccc(C(=O)NCc4ccccc4)cc3C2=O)no1 | . | 4.4 | . | 0.2 | 0.3 | 5 | . | .

Some of these compounds in order of the A1 inh value, largest number first.
Compound | UCH37 DUB inh | LANA-H2A inh | A1 inh | Beta2AR agonist | RanGTP-Imp inh
CC(=O)c1cccc(NC(=O)c2cc(Cl)sc2Cl)c1 | 3.7 | 11 | 0.7 | 7 | 0.0
O=C1N(CC(=O)N2CCc3ccccc32)CCN1Cc1ccc(Cl)cc1 | -2.0 | 2.1 | 0.6 | -4 | 0.5
CN1CCN(C(=S)Nc2cc([N+](=O)[O-])ccc2Cl)CC1 | 7.3 | 9.7 | -1.0 | -6 | .

Single records (already shown). Order of values: Calb FLC, UCH37 DUB inh, T cruzi repl, LANA-H2A inh, A1 inh, Beta2AR agonist, RanGTP-Imp inh, Beta apoptosis
`COc1ccc(N(C)C(=O)c2ccc3snnc3c2)cc1` in the list: 3, 4.1, 0, 3.3, 0.0, 14, -2.6, -2
`Cc1cc(N2C(=O)c3ccc(C(=O)NCc4ccccc4)cc3C2=O)no1` in the list: ., 4.4, ., 0.2, 0.3, 5, ., .

Further compounds.
SMILES | Calb FLC | UCH37 DUB inh | T cruzi repl | LANA-H2A inh | A1 inh | Beta2AR agonist | RanGTP-Imp inh | Beta apoptosis
Cn1c(=O)c2c(nc(SCCNS(=O)(=O)c3ccccc3)n2C)n(C)c1=O | 6 | -0.8 | -5 | 0.5 | -0.6 | 3 | 3.4 | 0
Cc1ccnc(NC(=O)CCC(=O)N(CC(=O)NCc2ccc(F)cc2)CC2CCCO2)c1 (configuration not stated) | 0 | 1.4 | 3 | 5.5 | 1.9 | 3 | -2.7 | -11
C=CCC[C@@H](Cc1ccc(F)cc1)C(=O)OC[C@@H](NC(=O)[C@@H](CC=C)CC(=O)N(CCO)Cc1ccccc1)c1ccccc1 | . | -2.5 | . | 3.0 | 0.1 | -10 | . | 1
CCOc1ccc(CN(C)C(=O)c2ccc3c(c2)NC(=O)C(C)S3)cc1OC (configuration not stated) | . | 4.0 | . | -0.2 | 0.6 | 4 | . | 4
Cc1c(C(=O)c2ccc(F)cc2F)c2ccccn2c1CCC#N | 23 | . | 9 | 19 | -0.6 | -12 | 3.9 | -13
N#Cc1ccc(S(=O)(=O)NCC(=O)OCC(=O)NCCc2ccccc2)cc1 | -5 | 3.0 | 1 | 5.9 | 1.0 | 5 | 6.7 | -2
N#CCCn1c(SCC(=O)Nc2ccc(N3CCOCC3)cc2)nc2ccccc21 | 30 | 1.0 | 0 | 2.7 | 0.4 | -12 | -3.5 | 2
O=C(NC1CCCCCCC1)c1ccc2c(c1)OCO2 | -9 | 1.8 | 11 | 0.4 | -4.4 | -6 | 5.0 | 9
CSc1nnc(C)c(=O)n1COC(=O)COc1ccc(Cl)cc1Cl | 5 | 2.3 | -20 | -0.8 | 0.1 | -1 | 2.6 | -1
CCCCN(CCCC)S(=O)(=O)c1ccc(NC(=O)CN2CCOCC2)cc1 | -6 | 1.0 | 8 | 0.2 | 1.3 | -5 | -1.3 | -4
Cc1cc(NC(=O)CSc2ncn(-c3ccccc3)n2)no1 | -1 | 0.7 | -4 | -0.2 | -0.3 | 7 | 1.5 | .
COc1ccc(C(=O)NNC(=O)CSc2nnc(-c3ccc(O)cc3)n2C)cc1 | -7 | . | -2 | -1.5 | -0.1 | 1 | 7.2 | -3
Cc1ccc(NC2=C(Cl)C(=O)OC2OC(=O)c2ccco2)c(C)c1 (configuration not stated) | -3 | . | -9 | -1.4 | 0.0 | 5 | 2.5 | -3
CSc1nc2n(n1)C(c1ccccn1)C1=C(CC(C)(C)CC1=O)N2 (configuration not stated) | -16 | -64 | 1 | 1.2 | -1.3 | 1 | 1.8 | -4
Cc1ccc(S(=O)(=O)NC2OC(=O)C(Cl)=C2Cl)cc1 (configuration not stated) | -4 | 1.4 | 5 | 0.2 | -0.4 | 9 | ? | -5
CCOc1ccc(CCNC(=O)c2[nH]c(C)c(C(C)=O)c2CC)cc1OCC | 0 | -0.5 | 16 | 2.0 | -0.7 | 5 | 2.8 | 2

Screening data deposited in PubChem by several laboratories.

Hits appear at their usual frequency; overall some 4.3% were active at least once.
